# Screening data as filed in PubChem.
# MEX-5 binding – MEX-5 zinc finger RNA-binding disruptors – biochemical, C. elegans, fluorescence polarization, MLPCN library, primary screen. MEX-5/FITC-TCR2 RNA binding; active compounds read low. 0.38% of 300,000 active. AID 1832, 2009. activity score (negative = inhibition of binding), % at 10 µM. Zinc finger protein mex-5 (Caenorhabditis elegans), Q9XUB2;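 active = inhibition past about -25% in most replicates, and total fluorescence under double the plate's negative control median, limit read from the data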;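 note: 0% = DMSO and -100% = 5 µM competing unlabeled TCR2 RNA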
# GLD-1 TGE inh – GLD-1/TGE RNA complex disruptors, primary screen, biochemical, fluorescence polarization | Female germline-specific tumor suppressor gld-1 (Caenorhabditis elegans), Q17339 | purified GLD-1 + fluorescein TGE RNA | inhibition, % at 5.96 µM | 0.44% of 320,000 active | AID 2280, 2010;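 active = percent inhibition above a per-plate cutoff, the plate mean of test compounds plus 3 SD, cut at about 30% in these data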;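 note: 0% = DMSO wells with GLD-1 and probe and 100% = wells lacking GLD-1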
# Target sequence (Q17339 whole entry, looked up): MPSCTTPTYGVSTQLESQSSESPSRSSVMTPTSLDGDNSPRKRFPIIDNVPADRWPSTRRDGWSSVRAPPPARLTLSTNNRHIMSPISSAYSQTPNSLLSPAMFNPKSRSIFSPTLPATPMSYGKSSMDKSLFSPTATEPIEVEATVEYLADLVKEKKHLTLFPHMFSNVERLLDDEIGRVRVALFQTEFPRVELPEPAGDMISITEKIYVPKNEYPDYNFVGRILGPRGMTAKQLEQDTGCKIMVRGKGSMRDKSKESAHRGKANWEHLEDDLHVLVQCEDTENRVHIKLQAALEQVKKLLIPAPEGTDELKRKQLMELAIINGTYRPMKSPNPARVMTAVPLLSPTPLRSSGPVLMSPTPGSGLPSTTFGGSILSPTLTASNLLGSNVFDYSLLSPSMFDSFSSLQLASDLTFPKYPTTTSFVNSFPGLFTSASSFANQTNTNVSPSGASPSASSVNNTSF
# AHR activator – AHR activators, primary screen, cell-based, luminescence, luciferase reporter, human. AID 2796, 2010. 2.5% of 320,000 active. activation, % at 5 µM. AHR-responsive luciferase reporter cells; in the data active = activation above about 47%;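 note: 0% = vehicle wells and 100% = reference agonist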
# Fam108B counter – mouse Fam108B serine hydrolase inhibitors, primary screen, counter-screen for RBBP9 inhibitor project, biochemical, fluorescence polarization; recombinant Fam108B, FP-Rh probe fluorescence polarization; AID 1947, 2009; inhibition, % at 9.51 µM; 0.33% of 300,000 active;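 active = inhibition above the screen mean inhibition plus 3 SD, computed separately per campaign, cut at about 18% in these data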;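 note: inhibitors lower polarization as less probe binds the enzyme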
# Numbers without * were called inactive; . = not tested or not shown. A portion of the library; rates above refer to the full screens.
[1] CC(=O)Nc1ccc(-c2csc(-c3cccnc3)n2)cc1
[2] Cc1sc2ncn(CC(=O)NCCCC(=O)N3CCN(c4ncccn4)CC3)c(=O)c2c1C
[3] Cc1ccc(NS(=O)(=O)c2ccc(-c3cnc(C4CC4)o3)cc2)cc1
[4] COCCCNC(=O)C1CC(=O)N(CCc2ccccc2)C1 (stereo not drawn)
[5] CCN(CCNC(=O)C1CC(=O)N(CCc2ccccc2)C1)c1ccccc1 (stereo not drawn)
[6] CC(NCC(=O)Nc1cc(S(=O)(=O)N2CCOCC2)ccc1Cl)c1ccc(Cl)cc1Cl (stereo not drawn)
[7] COCCOc1cc(N)c(Cl)cc1Cl
[8] CCn1c(Cc2ccccc2)nnc1SCC(=O)Nc1ccc(S(N)(=O)=O)cc1

compound no. | 1 | 2 | 3 | 4 | 5 | 6 | 7 | 8
MEX-5 binding | 1.9 | -1.7 | -0.9 | 2.0 | -1.6 | 0.5 | -0.3 | -1.5
GLD-1 TGE inh | 1 | 9 | -6 | 5 | -9 | 6 | -12 | 2
AHR activator | -5 | -2 | 24 | -2 | 4 | -2 | 0 | 0
Fam108B counter | 5 | 4 | -5 | -2 | -1 | -2 | 3 | 0

# Overlap with the part before: 3 entries, then new ones.
[6] CC(NCC(=O)Nc1cc(S(=O)(=O)N2CCOCC2)ccc1Cl)c1ccc(Cl)cc1Cl (stereo not drawn)
[7] COCCOc1cc(N)c(Cl)cc1Cl
[8] CCn1c(Cc2ccccc2)nnc1SCC(=O)Nc1ccc(S(N)(=O)=O)cc1
[9] CC(=O)N/C(=C\c1ccccc1)C(=O)OC(C)C(=O)N(C)c1ccccc1 (stereo not drawn)
[10] COc1ccccc1CC(=O)Nc1ccc(-c2noc(COc3ccc(Cl)c(C)c3)n2)cc1
[11] O=C(/C=C/c1ccccc1)c1ccc2c3c(cccc13)CC2
[12] CCc1ccccc1NC(=O)Nc1cc(F)ccc1F
[13] COc1cccc(OCC(=O)NNC(=O)c2cccs2)c1
[14] CC(=O)c1cccc(NC(=O)C2CC(=O)N(CCc3ccccc3)C2)c1 (stereo not drawn)
[15] CCCNC(=O)COC(=O)c1cc(C)nc2ccccc12
[16] COC(=O)C1=NN(c2ccccc2OC)C2C(=O)N(c3ccccc3OC)C(=O)C12 (stereo not drawn)

compound no. | 6 | 7 | 8 | 9 | 10 | 11 | 12 | 13 | 14 | 15 | 16
MEX-5 binding | 0.5 | -0.3 | -1.5 | 2.0 | 1.6 | -0.1 | -2.1 | 0.1 | -0.4 | 0.2 | 0.3
GLD-1 TGE inh | 6 | -12 | 2 | 7 | -1 | 3 | 6 | -1 | -2 | -2 | -2
AHR activator | -2 | 0 | 0 | 2 | 2 | -5 | 8 | 2 | 6 | 1 | 13
Fam108B counter | -2 | 3 | 0 | 0 | -1 | -6 | -2 | 0 | -1 | -2 | -2

# Complete entries from above:
# Profile of CC(=O)c1cccc(NC(=O)C2CC(=O)N(CCc3ccccc3)C2)c1 (stereo not drawn) : MEX-5 binding: -0.4; GLD-1 TGE inh: -2; AHR activator: 6; Fam108B counter: -1
# Profile of CCCNC(=O)COC(=O)c1cc(C)nc2ccccc12 : MEX-5 binding: 0.2; GLD-1 TGE inh: -2; AHR activator: 1; Fam108B counter: -2
# Profile of CC(=O)N/C(=C\c1ccccc1)C(=O)OC(C)C(=O)N(C)c1ccccc1 (stereo not drawn) : MEX-5 binding: 2.0; GLD-1 TGE inh: 7; AHR activator: 2; Fam108B counter: 0

# Remaining list, next part:
[17] Cc1ccccc1NS(=O)(=O)c1ccc2[nH]cc(C(=O)NCCCN3CCOCC3)c(=O)c2c1
[18] COc1ccc(/C=C/C(=O)NC(=S)N2CCN(c3ccccn3)CC2)cc1
[19] Cc1cc(C)c(C(=O)N2CCCC(CNC(=O)C3(c4ccc(Cl)cc4)CC3)C2)c(=O)[nH]1 (stereo not drawn)
[20] Cc1sc2ncn(CC(=O)NCCCC(=O)N3CCN(c4ccccc4)CC3)c(=O)c2c1C
[21] COc1ccc(-c2cc(CNC(=O)CN3CCN(C)CC3)on2)cc1
[22] c1ccc2[nH]c(NC3=NCCC3)nc2c1
[23] CC(=O)Nc1ccc(S(=O)(=O)Nc2nc3ccccc3nc2Nc2cccc(O)c2)cc1
[24] CN1C(=O)/C(=C/c2ccccc2Cl)Sc2ccc(C(=O)N3CCCC3)cc21

compound no. | 17 | 18 | 19 | 20 | 21 | 22 | 23 | 24
MEX-5 binding | 0.2 | . | 0.5 | -0.1 | 0.2 | 2.3 | -0.5 | -0.2
GLD-1 TGE inh | -1 | -1 | -2 | 2 | -3 | -5 | -7 | 1
AHR activator | 3 | 3 | 1 | 0 | 0 | -4 | 3 | -1
Fam108B counter | -5 | 1 | 3 | -2 | 1 | 1 | 3 | 0

# 5 of the entries above in order of their number in AHR activator, descending:
entry	Structure	AHR activator
18	COc1ccc(/C=C/C(=O)NC(=S)N2CCN(c3ccccn3)CC2)cc1	3
19	Cc1cc(C)c(C(=O)N2CCCC(CNC(=O)C3(c4ccc(Cl)cc4)CC3)C2)c(=O)[nH]1 (stereo not drawn)	1
20	Cc1sc2ncn(CC(=O)NCCCC(=O)N3CCN(c4ccccc4)CC3)c(=O)c2c1C	0
24	CN1C(=O)/C(=C/c2ccccc2Cl)Sc2ccc(C(=O)N3CCCC3)cc21	-1
22	c1ccc2[nH]c(NC3=NCCC3)nc2c1	-4

# New compounds follow.
[25] CCOC(=O)/C(=N/O)C1=NC(C)(C)Cc2cc(C)c(C)cc21
[26] CC(=O)O[C@H]1c2ccccc2-c2ccccc2[C@@H]1OC(C)=O
[27] COc1cc(OC)cc(C(=O)N2CCC(n3c(C)nc4cc(F)ccc43)CC2)c1
[28] Cc1nc2cc(F)ccc2n1C1CCN(C(=O)c2c(F)cccc2F)CC1
[29] CC(C)CCNC(=O)[C@H](Cc1ccccc1)N1Cc2ccccc2C1=O
[30] CCOC(=O)C1=NN(c2ccc(OC)cc2)C2C(=O)N(c3ccccc3OC)C(=O)C12 (stereo not drawn)
[31] CCOC(=O)c1c(-c2ccccc2)nnn1-c1nc(OC)nc(N2CCOCC2)n1
[32] CN(C)CCN(C(=O)C1CCCCC1)c1nc2cc3c(cc2s1)OCO3

compound no. | 25 | 26 | 27 | 28 | 29 | 30 | 31 | 32
MEX-5 binding | 3.0 | 2.4 | -1.7 | 1.7 | -1.0 | -0.6 | 1.6 | 1.0
GLD-1 TGE inh | 2 | 0 | -2 | 9 | 1 | 4 | 0 | -9
AHR activator | -2 | 3 | 4 | 0 | 6 | 2 | -1 | 4
Fam108B counter | -4 | 6 | 1 | 3 | -7 | -1 | 3 | -1

[33] Cc1cc2nc(CN(C)Cc3c(C(=O)N(C)C)nc4ccc(Cl)cn34)[nH]c2cc1C
[34] CCCC(C)c1nnc(NC(=O)C2CC(=O)N(CCc3ccc(F)cc3)C2)s1 (stereo not drawn)
[35] O=C(O)c1cc(-c2ccc(/C=N/Nc3ccc(Cl)cc3)o2)ccc1Cl
[36] O=C(N/N=C/c1ccc2c(c1)OCO2)c1ccc(NS(=O)(=O)c2cccs2)cc1
[37] CCC(=O)c1ccccc1OCCN1CCN(Cc2ccccc2)CC1
[38] O=C(O)c1ccc(/C=C(\c2nc3ccccc3[nH]2)c2nc3ccccc3s2)cc1
[39] C/C(=N\NC(=O)c1ccc(NS(=O)(=O)c2cccs2)cc1)c1ccc(C(C)(C)C)cc1
[40] NS(=O)(=O)c1ccc(NC(=O)CSc2nnc(COc3ccccc3Cl)n2C2CC2)cc1
[41] O=C(CSc1nc(O)cc(=O)[nH]1)C1CC1

compound no. | 33 | 34 | 35 | 36 | 37 | 38 | 39 | 40 | 41
MEX-5 binding | -2.9 | 1.9 | -8.5 | 1.0 | -0.1 | -8.1 | -0.9 | . | -1.7
GLD-1 TGE inh | -2 | -1 | -3 | -12 | -1 | 0 | 8 | -5 | -2
AHR activator | 15 | 3 | 71* | 15 | 2 | 24 | 9 | -1 | 1
Fam108B counter | 0 | 2 | 11 | -4 | 0 | -4 | -1 | 3 | 0
